AID923 = qHTS Assay for Allosteric/Competitive Inhibitors of Caspase-1: Spectroscopic Profiling in AFC Spectral Region. compound fluorescence, AFC spectral region (405/520 nm); almost no hit is shown here. Potency, µM (doses to about 57.5 µM), for the others: top-dose fluorescence increase, actives largely listed as activators. 75,000 tested, 1.1% active. AID 923, 2007; active = well fitted activation curve with a large enough effect;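 also: 0% is about no effect; scaled to a free AFC standard on each plate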
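Titrations up to 57 uM read every 20 sec for 3 min (405/520 nm) with 50 nM caspase 1 and 5 uM Ac-WEHD-AFC, pH 7.5 HEPES buffer. Fluorescence-vs-time intercept gave baseline, scaled against on-plate AFC standard.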
* = called active by the depositor; & = joins results of further samples; [ ] = another dose, or the depositor's remark. Potency is read from the fitted curve at half-maximal effect. Only part of the results is shown; rates above refer to the full screens.

SMILES	AID923
COC(=O)c1ccc(C23CC4(C2)[C@H](CN(C)[C@@H]4c2ccccc2)C3c2ccc(C(F)(F)F)cc2)cc1 (stereo partly specified)	0.6%
CCC(CO)N=CC1=C(O)CC(C)(C)CC1=O (stereo unspecified)	1.6%
FC(F)(F)c1ccc(C2[C@H]3CN(Cc4cccnc4)[C@H](c4ccccc4)C34CC2(c2ccccc2)C4)cc1 (stereo partly specified)	2.4%
CCC1=C2CC[C@H]3C(=O)N(c4ccccc4)C(=O)[C@H]3[C@H]2[C@@]2(Cc3ccccc3)C(=NCC3CC3)OC(=O)N2C1=O	3.2%
COC1C(O)CC(=O)OC(C)C/C=C/C=C/[C@@H](OC2CCC(N(C)C)C(C)O2)C(C)C[C@@H](CC=O)[C@@H]1O[C@H]1OC(C)[C@H](O[C@@H]2C[C@@](C)(O)C(O)C(C)O2)C(N(C)C)C1O (stereo partly specified)	1.0%
COC(=O)[C@H]1[C@H]2C[C@@H]3c4[nH]c5cc(OC)ccc5c4CCN3C[C@H]2C[C@@H](OC(=O)c2cc(OC)c(OC)c(OC)c2)[C@@H]1OC	17%
CCCc1nn(C)c2c(=O)[nH]c(-c3cc(S(=O)(=O)N4CCN(C)CC4)ccc3OCC)nc12	-1.4%
CO[C@@H]1COC(=O)[C@H](COCc2ccccc2)NC(=O)C/C=C\[C@@H](C)[C@H](OC)COC(=O)[C@@H](C)NC(=O)C/C=C\[C@H]1C	1.6%[11.5 µM]
COc1ccc(C(=O)C2C3C4COC(O4)C(=O)C3C3C=Cc4ccccc4N32)c(OC)c1 (stereo unspecified)	3.0%
CCCN1[C@H](C(=O)OC)C[C@@]2(O)[C@@H](O)[C@@H](O)[C@@H](O)C[C@@H]12	2.0%
OCC1OC(n2cnc3c(=S)nc[nH]c32)C(O)C1O (stereo unspecified)	0.0%
O=c1[nH]cnc2c1ncn2C1CC(O)C(CO)O1 (stereo unspecified)	5.9%
CN(C)C1C(=O)C(C(N)=O)=C(O)[C@@]2(O)C(=O)C3=C(O)c4c(O)ccc(Cl)c4C(O)[C@H]3C[C@@H]12 (stereo partly specified)	4.7%
Nc1ncnc2c1ncn2[C@@H]1O[C@H](COP(=O)(O)OP(=O)(O)O)[C@@H](O)[C@H]1O	-0.4%
CCCCNC(=O)c1cc2c(-c3ccc(Cl)cc3)nn(C)c2s1	2.5%
CC(C)CC(NC(=O)OCC1c2ccccc2-c2ccccc21)C(=O)O (stereo unspecified)	-2.1%
COC(=O)NCc1ccc(Cl)c(Cl)c1	0.9%
COC(=O)[C@@H]1C[C@H]2CC[C@H](O)C[C@H]2N1Cc1c(F)cccc1Cl	0.2%
C/C1=C/CC(C)(C)/C=C/C/C(C)=C/CC1	-0.3%
CC(=O)OCC1OC(Oc2cc(OC(C)=O)c3c(=O)cc(-c4ccc(OC(C)=O)cc4)oc3c2)[C@@H](OC(C)=O)C(OC(C)=O)C1OC(C)=O (stereo partly specified)	1.1%
COc1ccc(-c2cc(=O)c3c(OC(C)=O)cc(OC(C)=O)cc3o2)cc1	5.5%
Cn1c(N)c(C(=O)COC(=O)c2cc(-c3ccccc3)nc3ccccc23)c(=O)n(Cc2ccccc2)c1=O	5.5%
COc1c(O)cccc1O	-1.3%
CC(NC(=O)c1cc(-c2ccc(O)cc2)on1)c1ccccc1 (stereo unspecified)	-1.4%
CCC1=C(OC(=O)N(CC)CC)N2C(=O)OC(=NCCOC)[C@]2(Cc2ccccc2)[C@H]2C1=CC[C@H]1C(=O)N(C)C(=O)[C@H]12	-0.5%
CC1(C)OC2CC3C4CC(F)C5=CC(=O)CC[C@@]5(C)C4C(O)C[C@@]3(C)[C@]2(C(=O)CO)O1 (stereo partly specified)	-0.3%
N[C@H](CO)Cc1cnc[nH]1	-1.3%
CCC1=C(OC(=O)N(CC)CC)N2C(=O)OC(=NCC(=O)OC)[C@]2(C)[C@H]2C1=CC[C@H]1C(=O)N(CC(=O)OC)C(=O)[C@H]12	1.8%
CCN(CC)CCN1C(=O)C(=O)/C(=C(/O)c2ccccc2)C1c1ccccc1F (stereo unspecified)	-0.4%
COc1ccc(NC2=CC(=O)CC(C)(C)C2)cc1OC	1.3%
CCCCCc1c2c(cc(O)c1C(=O)O)OC(=O)c1c(cc(OC)cc1C(=O)CCCC)O2	-6.6%
O=C(/C=C/c1ccc(O)c(O)c1)OC(Cc1ccc(O)c(O)c1)C(=O)O (stereo unspecified)	2.5%&-2.7%
COc1ccc2c(C)cc(=O)oc2c1	-0.4%
CCOC(=O)OCC1OC(C#Cc2ccc(Br)cc2)C=CC1OC(=O)OCC (stereo unspecified)	-1.5%[11.5 µM]
C=CCSc1nc(N)c2c(C)c(C)sc2n1	-1.0%
c1ccc(C2[C@H]3CN(CC4CCCCC4)[C@H](c4ccccc4)C34CC2(c2cccnc2)C4)cc1 (stereo partly specified)	-0.3%
CN(C)CCc1c[nH]c2ccc(CS(=O)(=O)N3CCCC3)cc12	-1.2%
COc1ccc2c(c1)OCC(Cc1ccc(O)c(OC)c1)C2=O (stereo unspecified)	-3.4%
CC1=C(C(=O)OCc2ccccc2)C(c2ccccc2OC(F)F)NC(=O)N1 (stereo unspecified)	-0.3%
CC(C)=CCc1c2c(c(O)c3c(=O)c(O)c(-c4ccccc4)oc13)C=CC(C)(C)O2	-2.2%
CN1C2CCC1CC(OC(c1ccccc1)c1ccccc1)C2 (stereo unspecified)	-2.9%
COc1ccccc1N1CCN(C(=O)Cc2cccs2)CC1	-3.4%
CCC1=C2CC[C@H]3C(=O)N(CC(=O)OC)C(=O)[C@H]3[C@H]2[C@@]2(Cc3ccccc3)C(=NCCc3c[nH]c4ccccc34)OC(=O)N2C1=O	0.5%
CCC1=C2CC[C@H]3C(=O)N(C)C(=O)[C@H]3[C@H]2[C@@]2(Cc3ccccc3)C(=NCCc3c[nH]c4ccccc34)OC(=O)N2C1=O	1.8%
COC1C(O)C(CO)OC1n1cnc2c(=O)[nH]c(N)nc21 (stereo unspecified)	0.5%

14 structures from above, arranged by molecular weight, lowest first.
SMILES	AID923
COc1ccc2c(C)cc(=O)oc2c1	-0.4%
C/C1=C/CC(C)(C)/C=C/C/C(C)=C/CC1	-0.3%
C=CCSc1nc(N)c2c(C)c(C)sc2n1	-1.0%
O=c1[nH]cnc2c1ncn2C1CC(O)C(CO)O1 (stereo unspecified)	5.9%
CN1C2CCC1CC(OC(c1ccccc1)c1ccccc1)C2 (stereo unspecified)	-2.9%
CCCCNC(=O)c1cc2c(-c3ccc(Cl)cc3)nn(C)c2s1	2.5%
CC(C)CC(NC(=O)OCC1c2ccccc2-c2ccccc21)C(=O)O (stereo unspecified)	-2.1%
COc1ccc(-c2cc(=O)c3c(OC(C)=O)cc(OC(C)=O)cc3o2)cc1	5.5%
CCN(CC)CCN1C(=O)C(=O)/C(=C(/O)c2ccccc2)C1c1ccccc1F (stereo unspecified)	-0.4%
c1ccc(C2[C@H]3CN(CC4CCCCC4)[C@H](c4ccccc4)C34CC2(c2cccnc2)C4)cc1 (stereo partly specified)	-0.3%
CCCCCc1c2c(cc(O)c1C(=O)O)OC(=O)c1c(cc(OC)cc1C(=O)CCCC)O2	-6.6%
CCCc1nn(C)c2c(=O)[nH]c(-c3cc(S(=O)(=O)N4CCN(C)CC4)ccc3OCC)nc12	-1.4%
FC(F)(F)c1ccc(C2[C@H]3CN(Cc4cccnc4)[C@H](c4ccccc4)C34CC2(c2ccccc2)C4)cc1 (stereo partly specified)	2.4%
COC(=O)[C@H]1[C@H]2C[C@@H]3c4[nH]c5cc(OC)ccc5c4CCN3C[C@H]2C[C@@H](OC(=O)c2cc(OC)c(OC)c(OC)c2)[C@@H]1OC	17%

Carrying on.
SMILES	AID923
O=C(NCc1ccc2c(c1)OCO2)c1ccc(CS(=O)(=O)c2ccc(Br)cc2)o1	0.1%
O=c1cc(-c2ccc(O)cc2)oc2cccc(O)c12	-2.1%
O=c1cc(-c2ccccc2)oc2c(O)c(O)ccc12	-0.3%
Cn1nnnc1SCC1=C(C(=O)O)N2C(=O)C(NC(=O)C(OC=O)c3ccccc3)C2SC1 (stereo unspecified)	1.7%
CC1Cc2nc(SCC(=O)Nc3ccc4c(c3)OCO4)n(CCc3ccccc3)c(=O)c2S1 (stereo unspecified)	1.6%
C[C@@]12CCC(=O)C=C1C=CC1C2CC[C@]2(C)C1CC[C@@]21CCC(=O)O1 (stereo partly specified)	7.0%
CC(C)CCCC(C)C1CCC2C3CC=C4CC(O)CC[C@@]4(C)C3CC[C@@]12C (stereo partly specified)	-1.2%
COc1ccc2[nH]cc(CC(N)C(=O)O)c2c1 (stereo unspecified)	-3.2%
C/C=C(/C)C(=O)OC1Cc2c(ccc3ccc(=O)oc23)OC1(C)C (stereo unspecified)	-2.5%
C[C@H]1O[C@@H](O[C@H]2[C@@H](O)C[C@H](O[C@H]3[C@@H](O)C[C@H](O[C@H]4CC[C@]5(C)C6CC[C@]7(C)[C@@H](C8=CC(=O)OC8)CC[C@]7(O)C6CC[C@@H]5C4)O[C@@H]3C)O[C@@H]2C)C[C@H](O)[C@@H]1O (stereo partly specified)	-3.4%
COc1ccc2c(c1)OC/C(=C\c1ccc(OC)c(O)c1)C2=O	-2.7%
CCOC(=O)C(CC)(CCC(=O)O)c1csc(N)n1 (stereo unspecified)	-1.8%
CCC(=NCCc1ccccc1)C1=C(O)CCC1=O	-0.7%
O=C(CSc1nc2ccccc2o1)Nc1ccccc1	0.6%
CCCCNC(=O)c1nc2ncc(Br)cn2n1	2.1%
COC(=O)c1ccccc1NC(=O)C1CC(=O)N(c2ccccc2)C1 (stereo unspecified)	1.1%
CC1(C)CC2/C(CO)=C/C=C/[C@](C)(O)CC[C@]21O (stereo partly specified)	-2.2%
O=C1C=CC2=C3c4cc(O)c(O)cc4CC3(O)COC2=C1O (stereo unspecified)	7.2%&7.1%
O=C1CC[C@@]23/C=C/C(=O)NCCCCNCCCNC(=O)/C=C/c4ccc(c2c4)OC3C1 (stereo partly specified)	1.2%
Cn1c(Cn2c(=O)sc3ccccc32)nnc1SCC(=O)NCc1ccccc1	1.4%
CC(C)N(Cc1nc(-c2ccccc2)no1)C(=O)Cc1ccccc1	-0.7%
CCC(C(=O)NC(C)CCc1ccco1)n1nc(C)n2c(cc3occc32)c1=O (stereo unspecified)	2.0%
CN1C[C@H](C(=O)N[C@@]2(C)O[C@@]3(O)C4CCCN4C(=O)C(Cc4ccccc4)N3C2=O)C[C@H]2c3cccc4[nH]cc(c34)C[C@H]21 (stereo partly specified)	-1.4%
Cc1cc(O)c(C=O)c(O)c1C(=O)O	-2.7%
COc1ccc(C(C)C(=O)c2ccc(O)cc2O)cc1 (stereo unspecified)	0.7%
O=S(N1CCCCCC1)C12CC3CC(CC(C3)C1)C2 (stereo unspecified)	5.9%
COc1ccc(-c2cc(=O)c3c(O)cc(O)c(-c4cc(-c5cc(=O)c6c(O)cc(O)cc6o5)ccc4OC)c3o2)cc1	-2.0%
CCn1c(SCC(=O)N2CCCC2)nc2c(c1=O)SC(C)C2 (stereo unspecified)	-2.2%
O=C(/C=C/c1ccc(O)cc1)c1ccccc1O	-0.5%
CCOc1ccc(-c2nc(C#N)c(NCc3ccc4c(c3)OCO4)o2)cc1	-2.4%
CCCCCCCCCCCCCCC(C(=O)O)C(O)(CC(=O)OC)C(=O)O (stereo unspecified)	-0.5%
O=C(CN1C(=O)c2ccccc2S1(=O)=O)NCc1ccccc1Cl	2.1%
CCC(=O)OCC(=O)C1(OC(=O)CC)C(C)CC2C3CCC4=CC(=O)C=CC4(C)C3(Cl)C(O)CC21C (stereo unspecified)	0.9%
CC(=O)OC1CCC2(C)C3CC(=O)C4(C)C(CC5OC6(CCC(C)CO6)C(C)C54)C3CC[C@H]2C1 (stereo partly specified)	0.3%
C[C@@]12CCC(O)C[C@H]1CCc1ccccc12 (stereo partly specified)	-2.0%
CC(=O)OCC(=O)[C@@]1(O)CCC2C3CCC4=CC(=O)CC[C@]4(C)C3C(O)C[C@]21C (stereo partly specified)	0.4%
CNC1C(O)C(O)C(CO)O[C@H]1OC1C(O[C@@H]2C(O)C(O)[C@@H](N=C(N)N)C(O)C2N=C(N)N)OC(C)[C@]1(O)C=O (stereo partly specified)	-1.4%
COC1C[C@@H](O[C@@H]2C(C)C(=O)OC(C)C(C)C(O)C(C)C(=O)[C@@]3(CO3)CC(C)C(OC3OC(C)CC(N(C)C)C3O)C2C)OC(C)[C@@H]1O (stereo partly specified)	-2.5%
Cc1ccc(C)c(N2CCN(C(=O)CN(C)S(=O)(=O)c3ccc4c(c3)CCC(=O)N4)CC2)c1	-3.6%
C/C(NCCN1CCOCC1)=C(\C#N)C(N)=O	-2.6%
CCC1OC(=O)C(C)[C@@H](O[C@H]2C[C@@](C)(OC)C(O)C(C)O2)C(C)[C@@H](O[C@@H]2OC(C)CC(N(C)C)C2O)[C@@](C)(O)CC(C)CN(C)C(C)C(O)[C@]1(C)O (stereo partly specified)	-1.5%
COC(=O)/C(C)=C/CC12OC(C)(C)C3CC(C=C4C(=O)c5cc6c(c(CCC(C)(C)Cl)c5OC431)OC1(C)CCC(=C(C)C)C6C1)C2=O (stereo unspecified)	-1.7%
C[C@@]12CCC(OC(=O)c3ccccc3)CC1CCc1ccccc12 (stereo partly specified)	0.1%
N#Cc1ccc(C23CC4(C2)[C@H](CN(CC2CCCCC2)[C@@H]4c2ccccc2)C3c2ccccc2)cc1 (stereo partly specified)	0.3%
CNC(CC(=O)O)C(=O)O (stereo unspecified)	1.5%
OC[C@H]1O[C@@H](OC[C@H]2O[C@@H](O)[C@H](O)[C@@H](O)[C@@H]2O)[C@H](O)[C@@H](O)[C@@H]1O	-0.2%
CC(=O)c1c(O)c(C)c(O)c2c1OC1=CC(=O)C(C(C)=O)C(=O)[C@@]12C (stereo partly specified)	-2.3%
O=C(NCCc1cn2ccsc2n1)C1CCCCC1	-1.3%
COc1ccccc1-c1cc(=O)c2cccc(OC)c2o1	0.8%
